From PubChem BioAssay
HPGD inh – qHTS Assay for Inhibitors of HPGD (15-Hydroxyprostaglandin Dehydrogenase). purified HPGD, NADH fluorescence kinetic, PGE2 substrate. Potency, µM, for the others: top-dose activity change, negative = inhibition, usual class: inhibitors. 150,000 tested, 4.3% active. 15-hydroxyprostaglandin dehydrogenase [NAD(+)] (Homo sapiens), P15428; active = well fitted inhibition curve with a large enough effect (not every such curve was filed as active); inconclusive = small, poorly fitted or top-dose-only effect, or another doubt; inactive = no such curve, though single readings can be large or run the other way;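 also: top concentration of the series not given in the record; plate controls included wells without enzyme; inactives centre near -10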
Target sequence (P15428 whole entry, looked up): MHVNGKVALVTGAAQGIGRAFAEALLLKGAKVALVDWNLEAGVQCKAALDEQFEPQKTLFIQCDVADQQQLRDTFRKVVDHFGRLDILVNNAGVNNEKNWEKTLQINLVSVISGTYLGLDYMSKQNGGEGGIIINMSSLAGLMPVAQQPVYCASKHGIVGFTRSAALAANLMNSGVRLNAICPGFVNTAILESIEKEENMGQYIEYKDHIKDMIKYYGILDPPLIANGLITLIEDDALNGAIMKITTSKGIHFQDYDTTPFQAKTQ
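20 nM HPGD preincubated 15 min at room temperature with compound in 50 mM Tris-HCl pH 8, 0.01% Tween 20. Started with 1 mM NAD+ and 30 uM prostaglandin E2; NADH fluorescence (360/450 nm) read 5 times over 30-s intervals, last minus first.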
Starred values were filed as active, the others as inactive; ? = inconclusive; & = joins results of further samples. % is scaled to controls: 0 for no effect and ±100 for the full control effect; potency is read from the fitted curve at half-maximal effect.

HPGD inh | Structure
-6.8% | CCOC(=O)C1CCCN(S(=O)(=O)c2ccc(Br)c(OC)c2)C1 (stereo not drawn)
-7.9% | COCCN1C=C2C(=O)C(C)(OC(=O)CCC(=O)OC)C(=O)C(Br)=C2C=C1c1ccc(OC)cc1 (stereo not drawn)
1.5% | CC(C)CN1C=C2C(=O)C(C)(OC(=O)C3CCCC3)C(=O)C=C2C=C1c1ccsc1 (stereo not drawn)
? | COC(=O)c1ccc2c(=O)n(CCCCCC(=O)O)c(=S)[nH]c2c1
-5.2% | CS(=O)(=O)NCCCc1ccccc1
-12.6% | Cc1ccc(S(=O)(=O)NC(CN2CCOCC2)=NCCNS(=O)(=O)c2ccccc2)cc1
-6.7% | Cc1[nH]c2ccccc2c1C(=O)COC(=O)Cn1c(C(F)(F)F)nc2ccccc21
-6.3% | O=C(Nc1nc2ccccc2s1)c1ccc(N2CCCCC2)c([N+](=O)[O-])c1
1.0% | Cc1ccc(OCC(=O)NNC(=O)CCC(=O)NCc2ccccc2)cc1
-1.3% | COc1ccc(Cn2nnnc2C(c2ccccc2Cl)N2CCN(C)CC2)cc1 (stereo not drawn)
? | COc1ccc(Cl)cc1-c1ccc(C(=O)O)s1
-2.4% | COc1ccc(Cl)cc1S(=O)(=O)N1CCN(C(=O)c2ccco2)CC1
-24.8% | Cc1cccc2cc(COC(=O)c3ccco3)c(=O)[nH]c12
-0.7%&-29.2%&-1.0% | COc1c2ccoc2cc2oc(=O)ccc12
-4.0% | CCN(CC)S(=O)(=O)c1cc(NS(=O)(=O)c2cccc(Cl)c2)ccc1C

Some of these compounds in order of the HPGD inh value, falling.
Compound,HPGD inh
O=C(Nc1nc2ccccc2s1)c1ccc(N2CCCCC2)c([N+](=O)[O-])c1,-6.3%
CCOC(=O)C1CCCN(S(=O)(=O)c2ccc(Br)c(OC)c2)C1 (stereo not drawn),-6.8%
COCCN1C=C2C(=O)C(C)(OC(=O)CCC(=O)OC)C(=O)C(Br)=C2C=C1c1ccc(OC)cc1 (stereo not drawn),-7.9%

New compounds follow:
HPGD inh | Structure
-1.1% | O=C(Nc1cccc(F)c1)N1CCC2(CC1)CCN(C(=O)c1ccncc1)CC2
? | C=C(C)C(=O)Nc1nnc(-c2cccs2)s1
-8.9% | COc1ccc(CCN2C(=O)C3C4CC(C5C(C(N)=O)=NOC45)C3C2=O)cc1OC (stereo not drawn)
-2.7% | CCCOc1ccc(N2CC(C(=O)Nc3ccccc3C(=O)NCc3ccco3)CC2=O)cc1 (stereo not drawn)
-9.6% | Cc1cccc(NC(=S)NC2CCCCCC2)c1C
-25.2% | Nc1cc(C(=O)OCC(=O)NCc2ccco2)ccc1Cl
-0.9% | COCc1cc(Sc2ccc(Br)cc2)nc(-c2ccccc2)n1
-15.0% | O=C(O)C1SCCN1S(=O)(=O)c1ccc2ccccc2c1 (stereo not drawn)
-11.2% | O=C(CNC1CCCCC1)N1CCc2ccccc2C1
-20.2% | CCOc1cc(C(=S)N2CCOCC2)ccc1OS(=O)(=O)c1ccc(NC(C)=O)cc1
-1.8% | Cc1cc(C(=O)O)c(C)n1-c1ccccc1
-3.1% | CN(C)c1ccc(S(=O)(=O)NCC(=O)OCC(=O)Nc2cc(Cl)cc(Cl)c2)cc1[N+](=O)[O-]
-10.7% | CCN(CC)C(=O)CN(C#N)c1nc(OC)nc(N(C)C)n1
14.1µM* | Cc1ccc(-c2cc(C(=O)NCC3CCCO3)no2)cc1 (stereo not drawn)
? | CCOc1ccc2nc(/N=C/c3c(C)[nH]n(-c4ccc(C)cc4)c3=O)sc2c1

In a second layout: 4 of the compounds above
SMILES: CS(=O)(=O)NCCCc1ccccc1
  HPGD inh = -5.2%

SMILES: Cc1cc(C(=O)O)c(C)n1-c1ccccc1
  HPGD inh = -1.8%

SMILES: O=C(CNC1CCCCC1)N1CCc2ccccc2C1
  HPGD inh = -11.2%

SMILES: COC(=O)c1ccc2c(=O)n(CCCCCC(=O)O)c(=S)[nH]c2c1
  HPGD inh = ?

Next compounds follow:
HPGD inh | Structure
-21.8% | Cc1cc(C)nc(SC2=CS(=O)(=O)c3ccccc32)n1
-0.5% | COC(=O)C1=C(C)NC2=C(C(=O)CCC2)C1c1coc2ccccc2c1=O (stereo not drawn)
-1.8% | O=C(/C=C(\c1ccccc1)n1cncn1)c1ccccc1
-9.3% | COc1ccc(NS(=O)(=O)c2ccc3c(c2)oc(=O)n3C)c(OC)c1
-7.2% | C=CCN1C(=O)C(C(C)CC)NC1=S (stereo not drawn)
-8.4% | CCc1ccc(OCC(=O)N(C)C2CCS(=O)(=O)C2)cc1 (stereo not drawn)
-29.1% | O=C(O)C1Nc2c(O)cccc2C2C=CCC12 (stereo not drawn)
-0.9% | Cc1cc(C(F)(F)F)n(-c2nc(C(=O)NNS(=O)(=O)c3ccccc3)cs2)n1
-22.8% | Cc1c(C(=O)NCc2ccco2)sc2nc(-c3ccccc3)cn12
-5.1% | Cc1ccc(-c2cc(=O)c3cc(F)ccc3[nH]2)cc1
-3.3% | COc1cccc(C(CC(=O)NCC2CCCO2)NS(=O)(=O)c2ccc(C)cc2)c1OC (stereo not drawn)
-14.0% | CC1CCCC(C)N1CCNC(=O)Cn1nc(-c2ccccc2)ccc1=O (stereo not drawn)
? | COc1ccc(C(=O)/C=C/c2ccc(OC)c(Cn3nnc4ccccc43)c2)cc1
-6.4% | Cn1c(=O)c2c(nc(Sc3ncccn3)n2Cc2ccccc2Cl)n(C)c1=O
-19.9% | O=C(Cc1cccs1)Nc1ccc2c(c1)C(=O)OC2
-8.3% | Cc1ccc(-c2csc(NC(=O)CSc3nc4ccccc4[nH]3)n2)cc1
-3.5% | CCOC(=O)c1c(-c2ccccc2)c(C(C)=O)c(=O)n(C)c1C
-5.1% | CCn1nnnc1-c1ccc(OC)c(S(=O)(=O)N2CCCCC2)c1
-9.4% | COc1cccc2cc(C(=O)C3=C(O)C(=O)N(CCN(C)C)C3c3ccc(F)cc3)oc12 (stereo not drawn)
-8.1% | O=c1[nH]c2ccc(S(=O)(=O)N3CCN(c4ccccc4)CC3)cc2[nH]c1=O
? | Cc1c(Cl)cccc1-n1c(SCC(=O)NCc2ccccc2Cl)nnc1-c1ccncc1
-27.3% | CC(=O)C1C(c2ccccc2Cl)NC(=O)NC1(O)C(F)(F)F (stereo not drawn)
-2.6% | Cc1ccc(C(=O)N/C(=C/c2ccccc2)C(=O)NC(Cc2ccccc2)C(=O)O)cc1 (stereo not drawn)
-22.3% | O=C(COC(=O)COc1ccccc1[N+](=O)[O-])Nc1ccc(S(=O)(=O)N2CCCCC2)cc1
-2.6% | CCC(=O)Nc1ccc(-c2nnc(SCC(=O)NCC3CCCO3)n2C)cc1 (stereo not drawn)
-19.8% | O=C1/C(=C/c2cccnc2)SC(=S)N1C1CCS(=O)(=O)C1 (stereo not drawn)
0.9% | CC[C@H]1C(O)C[C@H]2CCN3C(=O)CCC[C@H]1[C@H]23 (stereo partly drawn)
? | CC(C)(CO)NC(=O)CCCOc1ccc(Cl)cc1Cl
-9.1% | O=C(OCc1cn(-c2ccc(Cl)c(Cl)c2)nn1)c1ccccc1
-13.3% | N#Cc1c(SCC(N)=O)nsc1SCc1ccccc1Cl
-1.8% | N=C(N)SCCc1ccncc1
2.3% | C=CCn1c(SCC(=O)N2CCOCC2)nc2sc3c(c2c1=O)CCCC3
-2.3% | CCCCOc1ccc(C(=O)N/C(=C\c2ccc([N+](=O)[O-])cc2)C(=O)OCc2ccco2)cc1
-4.2% | N#CCCNC(=O)CCN1CCCCC1
-3.3% | O=C(N1CCOCC1)C(F)(F)C(=O)N1CCOCC1
-13.7% | Cc1cc(N2CCC(C(N)=O)CC2)nc(-c2ccccc2)n1
-9.2% | CC(C)Nc1nc(NC(C)C)nc(N(C)C#N)n1
-14.6% | Cc1ccc(C(=O)COC(=O)c2ccccc2NC(=O)c2ccccc2)cc1[N+](=O)[O-]
-1.5% | Cc1ccc2oc(=O)n(CC(=O)OC(C)C)c2c1
-13.0% | CSc1ccc(NC(=O)N2CCN(c3nc4ccccc4s3)CC2)cc1
-18.6% | COc1cccc(N2CC(O)Cn3c2nc2c3c(=O)n(CCCc3ccccc3)c(=O)n2C)c1 (stereo not drawn)
-7.5% | CCOC(=O)CN1CC23C=CC(O2)C(C(=O)Nc2ccc4c(c2)OCO4)C3C1=O (stereo not drawn)
-6.5% | Clc1ccccc1COc1ccccc1-c1nnco1
1.1% | O=C(CN1CCN(c2ccccc2O)CC1)NNC(=O)c1ccc(Cl)cc1
-24.4% | C/C(=N\Nc1ccc(S(=O)(=O)Nc2ccc(Cl)cc2)cc1[N+](=O)[O-])c1ccc(N2CCOCC2)cc1
-16.3% | O=[N+]([O-])c1cccnc1NCCNc1ncc(C(F)(F)F)cc1Cl
-13.4% | Cc1noc(C)c1S(=O)(=O)Nc1ccc(C(=O)NC2CCCCC2)cc1
? | Cc1ccc(-c2[nH]n3c(=O)c4c(nc3c2C)CCCC4)cc1
-6.6% | CCOCc1nnc(NC(=O)c2ccc(OC)cc2)s1
-3.1% | CC(=O)[C@H]1[C@H](C#N)CC2C3CC=C4C[C@@H](O)CCC4(C)C3CCC21C (stereo partly drawn)
-18.6% | CC[N+](C)(CC)CC(=O)Nc1c(C)cccc1C
-1.8% | CC1(C)SC2C(NC(=O)C(C(=O)O)c3ccccc3)C(=O)N2C1C(=O)O (stereo not drawn)
-14.0% | COc1ccc(S(=O)(=O)N(C)CC(=O)Nc2ccccc2SC)cc1
12.6µM* | Cc1ccsc1/C=N/n1c(C2CCCCC2)n[nH]c1=S
-20.1% | O=C(c1ccco1)N1c2ccccc2Sc2ccccc21
-7.1% | O=C(CSc1nnc(-c2ccccc2)o1)c1ccc2c(c1)OCCO2
-11.3% | CN(C(=O)CSc1nnc(-c2ccco2)o1)C1CCCCC1
-26.3% | CC(=O)c1ccc(OCc2ccc(Oc3c(Cl)cccc3[N+](=O)[O-])cc2)cc1
-23.9% | c1ccc2c(c1)Sc1ccccc1-n1cnnc1-2
-1.9% | CCN1C(=O)/C(=C2\SC(=S)N(CC3CCCO3)C2=O)c2ccccc21 (stereo not drawn)

Next section:
HPGD inh | Structure
? | COc1ccccc1CNc1ncnc2ccc(-c3ccc(N(C)C)cc3)cc12
1.6% | COCCn1c(SCC(=O)Nc2cc(C(C)(C)C)nn2-c2ccccc2)nnc1-c1ccncc1
-14.3% | O=C(CSc1nnnn1-c1ccc(F)cc1)Nc1ccc(N2CCOCC2)c(Cl)c1
-16.2% | Cc1ccc(S(=O)(=O)/N=C(/Nc2ccccn2)c2ccc(Cl)cc2)cc1
? | N#CC1=C(N)SC(N)=C(C#N)C1c1c(Cl)cccc1Cl
-3.1% | Cc1nn(-c2ccccc2)c(OC(=O)c2cccs2)c1S(=O)(=O)c1ccccc1
3.9% | Cc1ccc(NC(=S)NN2CCOCC2)c(C)c1
-4.5%&-7.2% | CCOC(=O)CN1C(=O)N[C@@H](c2ccccc2)C(C(C)=O)=C1C
-2.9% | CC(C)(C)c1csc(SCC(=O)Nc2ccc(Cl)cn2)n1
? | Cc1oc2c(CN3CCOCC3)c(O)ccc2c(=O)c1-c1ccc(Br)cc1
-14.6% | CC(=O)c1ccccc1OCCOCCOc1ccccc1C(C)=O
-18.2% | CC(C)Oc1cccc(-n2c(CCc3c[nH]c4ccc(Br)cc34)nc3ccccc3c2=O)c1
1.3% | CC(NC(=O)C1(S(=O)(=O)c2ccc(Cl)cc2)CC1)c1ccccc1 (stereo not drawn)
-12.1% | Cc1cccc(C(=O)O/N=C2\CCS(=O)(=O)c3sccc32)c1
22.4µM* | CC1CCN(C(=O)c2ccc3c(c2NCCO)C(=O)c2ccccc2C3=O)CC1
-25.8% | COc1ccc(/C=N/NC(=O)CN2CCSCC2)cc1C
-18.0% | C=CCNc1nc2c(c(=O)n(C)c(=O)n2C)n1CC
-5.5% | O=C(CN1CCSCC1)N1CCc2[nH]c3ccc(Br)cc3c2C1
-18.6% | Cn1c(N2CCCC2)nc2c1c(=O)n(Cc1cccc(F)c1)c(=O)n2C
-10.8% | COc1cccc(NC(=O)COc2nc3ccccc3nc2C)c1
-14.0% | COc1ccc(-c2nnc(SCC(=O)NC3CCCCC3)o2)cc1OC
-27.4% | O=C(CCCN1C(=O)c2ccccc2C1=O)Oc1ccc(Cl)cc1
-7.9% | C(=C\c1ccccc1)/C=N/Nc1nc2ccccc2s1
-3.5% | NC(=O)C1(N2CCCCC2)CCN(CC(=O)Nc2ccccc2Sc2ccccc2)CC1
-14.0% | COCCOC(=O)C1=C(C)N=C2SCCC(=O)N2C1c1cccc(Br)c1 (stereo not drawn)
-11.1% | O=C(C(Cc1ccccc1)n1cccc1)N1CCN(c2ccccc2)CC1 (stereo not drawn)
-5.8% | CC(C)OC(=O)C1CC=CCC1C(=O)Nc1ccc(Cl)cc1 (stereo not drawn)
-19.8% | O=C(/C=C/NNC(=O)c1ccc(Br)cc1)c1ccccc1
-7.8% | O=C(NCC(=O)N1CCC(N2CCCCC2)CC1)C1CCCCC1
-1.8% | O=S(=O)(NCCCCCNS(=O)(=O)c1ccc(F)cc1)c1ccc(F)cc1
-9.6% | O=C(c1cccc2c1C(=O)N(Cc1cccnc1)C2)N1CCN(c2ccccc2)CC1
-3.8% | FC(F)(F)c1cccc(-c2noc(CN3CCOCC3)n2)c1
-3.3% | Cc1nnc(SCC(=O)Nc2ccccc2C(=O)NC2CC2)s1

3 neighbouring entries out of the list so far:
HPGD inh | Structure
-9.6% | O=C(c1cccc2c1C(=O)N(Cc1cccnc1)C2)N1CCN(c2ccccc2)CC1
-3.8% | FC(F)(F)c1cccc(-c2noc(CN3CCOCC3)n2)c1
-3.3% | Cc1nnc(SCC(=O)Nc2ccccc2C(=O)NC2CC2)s1

The list is partial; rates above refer to the full screens.
